From PubChem BioAssay
miR-21 FLuc: raises the signal of a miR-21 reporter | 340,000 tested, under 10 active | AID 2288 | HeLa miR-21 FLuc reporter, luciferase, 48 h | Potency, µM (top dose mostly 38.3 µM), inactives show at the highest dose reporter change, positive = more light; active = well fitted rising curve with a large enough effect; inconclusive = small, poorly fitted or top-dose-only effect; inactive = no such curve, though single readings can be large or run the other way;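 further: % of control where 0% means no effect; miR-21 action dims this reporter so a rising signal means less miR-21 action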
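Compounds were titrated across several concentrations (up to approximately 40 uM) and incubated 48 hours with HeLa miR-21-FLuc reporter cells (miR-21 target sequence downstream of FLuc, endogenous miR-21). Readout was firefly luciferase luminescence after lytic detection reagent.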
GLA inh pH 4.5: blocks human alpha-galactosidase A at pH 4.5 | 230,000 tested, under 10 active | P06280 | AID 1467 | purified enzyme, 4-MU-alpha-Gal fluorescence, pH 4.5 | activity change, negative = inhibition, % at 105 µM; inconclusive = small, poorly fitted or top-dose-only inhibition, or a rising curve; inactive = flat fitted curve, though single readings scatter; no compound was filed as active;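 further: 0% = full activity with enzyme and -100% = basal without enzyme; dose as in the result columns while the protocol names 77 µM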
Rango dissoc inh: prevents RanGTP from dissociating the Rango-importin beta complex; Biochemical FRET Rango-importin beta, RanGTP-induced dissociation; 340,000 compounds, 0.071% hits; AID 540253; O95149+P62826; Potency, µM (series often up to 46.1 µM), for the others: top-dose activity change, negative = inhibition; active means falling FRET ratio curve, often poorly fitted, with flat reads before Ran was added; inconclusive means other falling curves, or compound fluorescence or quenching; inactive means flat or rising ratio curve;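 further: potency means the concentration at half of the fitted maximal effect; % of control where 0% means no effect; nearly all actives have a fitted effect of over 45% in size; -100% = wells without RanGTP and RCC1; the record marks most hits as doubtful in a second field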
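Compounds sat 5 min at room temperature with 0.1 uM Rango biosensor plus 0.25 uM importin beta, then FRET pre-read. RanGTP-RCC1 (0.6 uM Ran, 2mM GTP, 0.2 uM RCC1) added for 45 min, and the CFP/YFP post-read measured blocked complex dissociation.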
Rango complex inh: prevents formation of the Rango-importin beta complex | Q14974 | Rango CFP/YFP FRET sensor + importin beta, 45 min | Potency, µM (top dose mostly 92.2 µM), without a hit: at the highest dose inhibition of complex formation | 340,000 compounds, 0.031% hits | AID 540263; active = rising FRET ratio curve, often small or poorly fitted; inconclusive = mostly compound fluorescence or quenching in the first reads; inactive = flat curves in all reads;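 further: potency means the concentration at half of the fitted maximal effect; 0% = DMSO wells and 100% = buffer wells lacking importin beta; nearly all actives have a fitted effect of over 15% in size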
Target sequence (Q14974 whole entry, looked up): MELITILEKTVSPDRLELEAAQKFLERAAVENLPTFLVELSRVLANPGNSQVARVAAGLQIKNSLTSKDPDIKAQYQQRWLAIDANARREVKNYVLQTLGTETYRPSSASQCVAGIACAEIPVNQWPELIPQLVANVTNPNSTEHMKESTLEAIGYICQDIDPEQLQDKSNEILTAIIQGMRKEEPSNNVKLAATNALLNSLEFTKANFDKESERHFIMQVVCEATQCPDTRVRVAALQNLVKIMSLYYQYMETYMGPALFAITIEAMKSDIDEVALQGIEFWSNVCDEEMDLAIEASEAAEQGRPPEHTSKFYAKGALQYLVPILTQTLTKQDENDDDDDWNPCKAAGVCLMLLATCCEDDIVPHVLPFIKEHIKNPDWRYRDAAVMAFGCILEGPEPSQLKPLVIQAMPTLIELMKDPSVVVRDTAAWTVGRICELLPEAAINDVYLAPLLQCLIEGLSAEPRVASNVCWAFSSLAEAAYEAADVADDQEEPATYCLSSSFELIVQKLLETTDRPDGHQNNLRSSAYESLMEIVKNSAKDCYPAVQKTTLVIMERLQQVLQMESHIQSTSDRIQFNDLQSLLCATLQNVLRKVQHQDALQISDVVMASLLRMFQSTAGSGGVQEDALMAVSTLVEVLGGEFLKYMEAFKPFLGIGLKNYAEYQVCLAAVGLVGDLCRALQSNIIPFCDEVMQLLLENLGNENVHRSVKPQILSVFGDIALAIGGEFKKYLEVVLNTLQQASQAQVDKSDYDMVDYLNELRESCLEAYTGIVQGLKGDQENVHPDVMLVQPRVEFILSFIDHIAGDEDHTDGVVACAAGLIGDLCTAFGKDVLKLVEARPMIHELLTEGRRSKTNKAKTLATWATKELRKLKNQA
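Inhibition scored from the CFP 486 nm/YFP 530 nm FRET ratio 45 min after adding 0.125 microM importin beta to 50 nM Rango biosensor preincubated 5 min with compound (room temperature, PBS with DTT, Tween-20, BSA). No-importin wells as positive control.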
* marks the source's active call; other numbers are inactive results; ? = inconclusive; / = no result given; & = joins results of further samples. An excerpt; count on the stated rates, not on these rows.

SMILES | miR-21 FLuc | GLA inh pH 4.5 | Rango dissoc inh | Rango complex inh
Cc1nn(-c2ccc(Cl)c(Cl)c2)c(C)c1C(=O)O | -3% | -5 | 0% | -0.2%
CC(=O)NC(CC(=O)Oc1ccc(C)cc1Br)c1ccccc1 (centres undefined) | 2% | / | 0% | -0.2%
Cc1cc(Cl)cc(Br)c1OCCNCC(C)O (centres undefined) | -10% | 2 | -4% | 4.3%
CCN1CCN(c2nc(Nc3ccccc3F)nc(N)c2[N+](=O)[O-])CC1 | -5% | -6 | 14% | 3.7%
COc1ccc(NS(=O)(=O)c2cccc(C(=O)OCC(=O)c3c(N)n(C)c(=O)n(C)c3=O)c2)cc1 | / | / | 1% | -4.2%
O=C(NCc1ccccc1C(F)(F)F)C1CCC(=O)N(CCCc2ccccc2)C1 (centres undefined) | 7% | / | -1% | 0.5%
CC(=O)NC(Cc1cccc(C)c1)C(=O)NC1CCN(C(=O)c2ccc([N+](=O)[O-])cc2)CC1 (centres undefined) | -8% | 2 | 1% | -0.2%
Cc1ccc(C(=O)OC(C)C(=O)Nc2ccc3c(c2)OCO3)c(O)c1 (centres undefined) | / | / | -21% | -1.5%
COc1ccc(C(=O)NC2CCCc3c2cnn3-c2cccc(C)c2C)o1 (centres undefined) | 23% | / | -7% | -1.2%
O=C(CCS(=O)(=O)c1ccc(Cl)cc1)Nc1cccc(S(=O)(=O)N2CCCCCC2)c1 | / | / | 1% | -0.9%
COC(=O)c1ccc(OC(=O)c2cccs2)cc1 | -2% | 7 | 1% | -2.6%
COc1ccc(OC)c(N=C2C(=O)Nc3ccccc32)c1 | -3% | 0 | -11% | -3.3%
COc1nc(OC/C(N)=N/O)nc(N2CCOCC2)n1 | -4% | -9 | -6% | -0.6%
COc1cc(/C=C/C(=O)O)ccc1OS(=O)(=O)c1ccc(C)cc1 | 0% | -6 | 7% | 1.4%
COc1ccc2c(c1)c(CC(=O)O)c(C)n2C(=O)c1ccc(Cl)cc1 | -17% | 5&-1&-6&8&5&2 | -7% | 0.2%
CN1c2ccccc2-c2nc3ccccc3n2C1c1ccncc1 (centres undefined) | -1% | 3 | -5% | -5.5%
COc1ccc(OCC(=O)Nc2cc(-c3nn4c(C)nnc4s3)ccc2C)cc1 | -2% | 0 | 0% | -4.6%
Cc1ccccc1C(=O)N1CCC(C(=O)Nc2ccc(S(=O)(=O)N3CCOCC3)cc2)CC1 | / | / | 4% | -1.5%
CN(Cc1ccccc1)S(=O)(=O)c1cccs1 | -3% | 0 | 16% | 3.9%
COc1cc(C)nc(NS(=O)(=O)c2ccc(C)cc2)n1 | -5% | 2 | 5% | 0.4%
Cc1ccc(S(=O)(=O)N(C)c2ccccc2C(=O)NC2CCCC2)cc1 | -3% | 0 | 3% | -1.0%
CN(Cc1ccc(OC(F)F)cc1)C(=O)c1ccc2nccnc2c1 | -2% | -2 | -1% | -1.1%
CCOc1ccc(NC(=O)c2ccc(OCC3CCCO3)cc2)cc1S(=O)(=O)N(CC)CC (centres undefined) | / | / | -16% | -0.9%
COc1ccccc1N(CC(=O)NCCSCc1ccccc1)S(=O)(=O)c1ccc(C)cc1 | ? | / | -20% | -0.2%
Cc1cccc(NC(=O)CCc2ccc(S(=O)(=O)NC3CCCCC3)cc2)c1 | 7% | -6 | 16% | 0.3%
CC1CCN(C(=O)CSc2nnc(-c3cccs3)o2)CC1 | -39% | / | 3% | 0.3%
Cc1ccc(S(=O)(=O)N2CCC(C)CC2)cc1C(=O)NCCN1CCOCC1 | -3% | / | -18% | 0.7%
COc1cc2c3c(c1OC)C1(C=CC(=O)C=C1)CC3N(C(=O)c1ccccc1)CC2 (centres undefined) | -6% | -29 | -5% | -1.0%
Cc1ccc(-n2c(C)n[nH]c2=S)cc1C | -4% | 6 | -11% | -0.1%
CCOc1ccc(NC(=O)CN(C)C(=O)C2CCN(c3ncnc4sc(C)c(C)c34)CC2)cc1OCC | 23% | / | 2% | 1.1%
CC(OC(=O)c1cc2sccc2n1C)C(=O)NC(C)(C)C (centres undefined) | 0% | 5 | -22% | 1.7%
O=C(Nc1ccc(OC(F)(F)F)cc1)C1CCCN(S(=O)(=O)c2cccnc2)C1 (centres undefined) | 19% | -10 | 29% | 3.4%
O=C(c1cnc2n(c1=O)CCS2)N1CCc2ccccc21 | -3% | 4 | 6% | 2.2%
O=S(=O)(Nc1ccccc1N1CCOCC1)c1ccc(Cl)cc1 | / | / | 11% | -0.8%
O=C(CCN1C(=O)S/C(=C/c2ccc(Cl)cc2)C1=O)N1CCOCC1 | -6% | 2 | -8% | ?
O=C(Nc1ccccc1)OCCOc1ccc(Cl)cc1Cl | / | / | 2% | 1.0%

Part of the list above, showing only Rango complex inh and miR-21 FLuc.
Molecule	Rango complex inh	miR-21 FLuc
O=C(NCc1ccccc1C(F)(F)F)C1CCC(=O)N(CCCc2ccccc2)C1 (centres undefined)	0.5%	7%
CC(OC(=O)c1cc2sccc2n1C)C(=O)NC(C)(C)C (centres undefined)	1.7%	0%

The results go on:
SMILES | miR-21 FLuc | GLA inh pH 4.5 | Rango dissoc inh | Rango complex inh
O=C1NC[C@H](c2ccccc2)OC(=O)[C@@H](Cc2ccc(F)cc2)C/C=C\C[C@H]1CC(=O)N(CCO)Cc1ccccc1 | / | / | 1% | -0.6%
CCc1cc[n+](-c2nc3ccccc3nc2[N-]S(=O)(=O)c2ccc(Br)s2)cc1 | -21% | 1 | ? | ?
COc1ccc(C2C(C#N)=C(N)OC3=C2C(=O)CCC3)cc1Cn1cc([N+](=O)[O-])cn1 (centres undefined) | -3% | 0 | -5% | -1.3%
O=C(Nc1ccc(Cl)cc1C(=O)N1CCCC1)c1cccc([N+](=O)[O-])c1 | 0% | -12 | 9% | -0.6%
COc1ccc(C2C3C(C)=NN=C3CC(C)(O)C2C(C)=O)cc1 (centres undefined) | 6% | -26 | 2% | 2.3%
COc1ccc(NC(=O)Cc2nnc(SCC(=O)Nc3ccc(F)cc3)n2C)cc1 | 5% | / | 2% | -3.5%
Cc1cc(C)n2nc(SCC(=O)N(Cc3ccccc3)C3CCS(=O)(=O)C3)nc2n1 (centres undefined) | -4% | 1 | -2% | 0.8%
CC1CN(c2ccc(C(F)(F)F)cc2[N+](=O)[O-])CCN1S(C)(=O)=O (centres undefined) | -3% | 2 | 3% | 0.6%
Nc1ccccc1Nc1cccc(C(F)(F)F)c1 | 7% | 1 | 0% | ?
CN(CCC(=O)Nc1cc(S(=O)(=O)N(C)C)ccc1Cl)CC(=O)Nc1ccc(F)cc1 | 6% | / | 6% | -0.3%
O=C(c1cccc(F)c1)N1CCCN(C(=O)c2cccc(F)c2)CC1 | -8% | 5 | -3% | 1.3%
CC(Sc1nnc(-c2ccccc2F)n1C1CC1)C(=O)NCc1ccco1 (centres undefined) | / | / | -15% | -0.1%
COc1ccc2[nH]cc(CCNC(=O)COc3ccc4ccc(=O)oc4c3)c2c1 | 7% | / | 15% | 3.3%
Cn1cccc1C(=O)NCCc1ccccc1 | -11% | / | 1% | 0.2%
CCCn1c(SCC(=O)c2ccc(CC)cc2)n[nH]c1=O | -11% | 1 | ? | ?
CCCNC(=S)Nc1ccc(F)cc1F | 5% | 1 | 1% | 1.0%
O=C(NS(=O)(=O)Nc1ccc(Br)cn1)c1c[nH]c2ccccc12 | 0% | / | -11% | -0.9%
CC(NC(=O)CN1CCN(c2ncccn2)CC1)c1ccc(F)cc1 (centres undefined) | -5% | -4 | -1% | 4.6%
CC(C)[C@H](NC(=O)c1ccccc1)C(=O)OCC(=O)c1ccc(S(=O)(=O)N2CCCCC2)cc1 | / | / | ? | 1.2%
Cc1cc2c(o1)CC(C)(C)CC2=O | 0% | 2 | 13% | ?
CCOC(=O)c1c(C)[nH]c(C(=O)OCC(=O)c2ccc(OC)cc2OC)c1C | / | / | -2% | -4.1%
COc1ccc(Cl)cc1NC(=O)Nc1cc(C)on1 | -17% | / | 7% | 0.7%
Oc1cc(Cc2ccccc2)cnc1CN1CCOCC1 | -17% | -11 | 0% | 5.0%
Cc1cc(-c2cc(C(=O)NCc3ccccc3)on2)nc(S(C)(=O)=O)n1 | 18% | -2 | -5% | -2.7%

3 entries picked at random from the list so far, as already listed:
SMILES | miR-21 FLuc | GLA inh pH 4.5 | Rango dissoc inh | Rango complex inh
Cc1cc2c(o1)CC(C)(C)CC2=O | 0% | 2 | 13% | ?
COc1ccc2[nH]cc(CCNC(=O)COc3ccc4ccc(=O)oc4c3)c2c1 | 7% | / | 15% | 3.3%
O=C(NS(=O)(=O)Nc1ccc(Br)cn1)c1c[nH]c2ccccc12 | 0% | / | -11% | -0.9%

Additional entries:
SMILES | miR-21 FLuc | GLA inh pH 4.5 | Rango dissoc inh | Rango complex inh
CCOC(=O)CC1C(=O)NCCN1C(=O)c1ccc(C)cc1 (centres undefined) | -2% | / | 14% | 3.9%
N#Cc1ccc(C(=O)Nc2cc(C3CC3)nn2-c2ccccc2)cc1 | / | / | 0% | -1.5%
CCCOC(=O)c1ccc(NC(=O)c2ccc(Br)o2)cc1 | -29% | -4 | -13% | 0.9%
Nc1c(C(=O)NCc2cccnc2)sc(=S)n1-c1ccccc1 | 3% | -1 | 6% | 4.1%
NC(=O)C1CCN(c2ccc3c(c2)S(=O)(=O)c2ccccc2C3=O)CC1 | / | / | ? | ?
O=C(NCc1ccc(F)cc1)c1cc(C(=O)C2CC2)c[nH]1 | 5% | / | -8% | -1.5%
O=C(CSc1ccc(Br)cc1)NCC(c1ccco1)N1CCCCC1 (centres undefined) | / | / | 1% | 0.4%
O=c1[nH]cnc2c1ncn2C1OC(CO)C(O)C1O (centres undefined) | / | 0&8&6 | -8% | -3.5%
CC(C)[C@H](NC(=O)c1ccc(Cl)c([N+](=O)[O-])c1)C(=O)NCc1ccc(F)cc1 | 0% | 5 | 28% | 0.4%
O=C(COc1nc2ccccc2nc1N1CCOCC1)NC1CCCCC1 | -2% | -3 | -2% | 6.1%
Cn1c(=O)c2c(nc(/C=C/c3cccc(Cl)c3)n2C)n(C)c1=O | / | 9 | 2% | -3.1%
C/C(=N/NC(=O)CNC(=O)c1cccnc1)c1ccc(Cl)cc1 | -1% | / | 1% | -3.3%
COC(=O)Nc1ccc(S(=O)(=O)Nc2cc(OC)nc(OC)n2)cc1 | -4% | / | -16% | 2.1%
O=C(COC(=O)c1ccc(Cl)c(S(=O)(=O)N2CCCCC2)c1)NCCc1ccccc1 | / | / | 12% | 3.0%
O=C(NCC1COCCO1)C1CCN(S(=O)(=O)c2ccccc2)CC1 (centres undefined) | -1% | 3 | -15% | 3.5%
S=C(NCCCN1CCOCC1)N1CCN(c2cccc(Cl)c2)CC1 | 6% | / | 3% | 2.8%
Cc1nc2cc(NC(=O)NCc3ccc4c(c3)OCO4)ccc2o1 | -10% | 3 | 6% | -2.7%
CCC1Oc2ccccc2N(CC(=O)NCCCN2CCN(c3ccc(OC)cc3)CC2)C1=O (centres undefined) | 23% | / | -1% | 2.5%
COC(=O)c1ccc(CSc2nc3ccccc3c(=O)n2C)o1 | -3% | / | 7% | ?
CCOC(=O)c1ccc(NC(=O)NS(=O)(=O)c2ccc(C)cc2)cc1 | -13% | 1 | -3% | 2.7%
CCOC(=O)C(/C=N/c1cc(C)nn1-c1ccccc1)=C(\C)O | -1% | -1 | -1% | 5.5%
Cc1cc2c(cc(C(=O)NCc3cccnc3)n2Cc2ccc(Cl)cc2)o1 | -12% | -20 | -27% | ?
CCOCCCNC(=O)CN(Cc1ccc(Cl)cc1)S(C)(=O)=O | -2% | 0 | -13% | -1.3%
Cc1ccc(C)c(N=Cc2cc3c(cc2[N+](=O)[O-])OCO3)c1 | 3% | -1 | -12% | -0.4%
O=C(CCNC(=O)c1ccccc1Cl)Nc1ccncc1 | 0% | / | 23% | -3.9%
Cc1ccc(Cc2c(C)c(C#N)c3[nH]c4ccccc4n3c2=O)cc1 | 3% | ? | 1% | 2.3%
O=C(O)c1c(Cl)nc2ccccn12 | -2% | 5 | -14% | 3.8%
CC(C)c1nc2sc3c(SCC(=O)NCc4ccco4)ncnc3c2c2c1CCC2 | -20% | -10 | -15% | -2.7%
